D2 ag = agonists of human D2 dopamine receptor (beta-arrestin); P14416; DiscoveRx PathHunter D2 beta-arrestin, luminescence, 90 min; 100% = 57 uM dopamine signal; activation, % (no concentration beside the values); hit rate 0.084% among 360,000; AID 624465; in the data active = activation above about 40%; inconclusive = about 15% to 40%; inactive = below about 15%; also: compound concentration not given in the record; the text of the record calls up to 30% inactive
Target sequence (P14416 whole entry, looked up): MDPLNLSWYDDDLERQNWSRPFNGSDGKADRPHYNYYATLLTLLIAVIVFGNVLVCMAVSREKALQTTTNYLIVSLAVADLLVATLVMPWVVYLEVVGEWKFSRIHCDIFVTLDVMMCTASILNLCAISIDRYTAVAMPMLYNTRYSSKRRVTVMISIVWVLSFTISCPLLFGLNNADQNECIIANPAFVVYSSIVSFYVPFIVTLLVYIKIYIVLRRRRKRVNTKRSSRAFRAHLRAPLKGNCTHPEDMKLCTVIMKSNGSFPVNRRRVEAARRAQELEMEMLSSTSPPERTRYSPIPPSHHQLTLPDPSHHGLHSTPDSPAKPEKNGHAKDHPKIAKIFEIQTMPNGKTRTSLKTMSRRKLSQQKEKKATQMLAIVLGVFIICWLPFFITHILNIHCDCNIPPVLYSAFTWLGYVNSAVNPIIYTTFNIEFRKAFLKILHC
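Agonist mode: compounds alone added to overnight-plated D2 PathHunter cells for 90 min at 37 C, with 57 uM final dopamine (EC100) defining full response. Beta-arrestin recruitment detected by chemiluminescent reagent, read after 1 h at ambient temperature.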
TRPML1 ag = agonists of human TRPML1 channel. Q9GZU1. TRPML1-expressing cells, Ca2+ dye fluorescence, FDSS; host cell line not named in the record; reference of the full effect not given here. activation, % (concentration not given with the values). hit rate 0.12% among 410,000; in the data active = activation above about 50%; inconclusive = about 30% to 50%; inactive = below about 30%; also: 0% is about no effect; the text of the record puts the active cut at 80%
Target sequence (Q9GZU1 whole entry, looked up): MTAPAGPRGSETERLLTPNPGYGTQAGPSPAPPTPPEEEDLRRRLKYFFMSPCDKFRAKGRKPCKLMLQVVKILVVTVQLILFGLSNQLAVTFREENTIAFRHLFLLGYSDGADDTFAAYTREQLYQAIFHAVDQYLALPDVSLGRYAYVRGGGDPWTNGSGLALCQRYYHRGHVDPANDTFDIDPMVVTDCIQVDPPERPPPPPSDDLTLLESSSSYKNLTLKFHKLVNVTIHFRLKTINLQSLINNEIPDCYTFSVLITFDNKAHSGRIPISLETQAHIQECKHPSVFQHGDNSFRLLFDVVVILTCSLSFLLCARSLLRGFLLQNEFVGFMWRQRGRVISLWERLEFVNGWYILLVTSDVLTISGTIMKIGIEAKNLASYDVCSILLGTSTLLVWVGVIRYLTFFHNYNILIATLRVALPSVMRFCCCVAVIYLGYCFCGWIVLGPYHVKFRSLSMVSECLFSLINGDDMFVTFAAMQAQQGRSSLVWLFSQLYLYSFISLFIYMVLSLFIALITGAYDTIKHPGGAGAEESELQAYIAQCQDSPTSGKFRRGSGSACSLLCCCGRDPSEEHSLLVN
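Cells: TRPML1-DL, 1X Tet inducer, ~16 h at 37 degrees C/5% CO2. Dye: ABD Ca8 no-wash + quencher, 45-90 min RT. Read: 10 s baseline, compound add, 110 s agonist phase; 54-4 EC80 (4uM final), 110 s antagonist phase.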
CtBP-E1A blk = CtBP/E1A binding inhibition. AlphaScreen GST-E1A/His-CtBP binding, 1536-well; stronger effect = lower value; control for the full effect not named in the record. activity change, % (test concentration not listed). hit rate 0.49% among 340,000. AID 651724; in the data active means activity change below about -65%; inconclusive means about -30% to -65%; inactive means above about -30%; also: % is scaled to controls: 0 for no effect and ±100 for the full control effect; compound concentration not given in the record
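Steps: dispense buffer (Tris pH 8.0, NaCl 300 mM, TCEP 1 mM, BSA, Tween 20); add 5X protein mix (GST-E1A, His-CtBP, 125 nM each); pin 23 nL compound; 2 h at 37 °C, dark; add 5X beads (50 ug/mL); 1 h; read.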
TRPML1 blocker = inhibitors of human TRPML1 channel; Q9GZU1; TRPML1-inducible cells, Ca2+ dye fluorescence, FDSS; stronger effect = lower value; inhibition of EC80 agonist-evoked calcium signal; activity change, negative = inhibition, % (concentration not given with the values); hit rate 0.02% among 390,000; in the data active means activity change below about -50%; inconclusive means about -30% to -50%; inactive means above about -30%;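 also: stimulus is agonist 54-4 at its EC80 concentration; % is scaled to controls: 0 for no effect and ±100 for the full control effect; compound concentration not given in the record; the text of the record puts the active cut at -80%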
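Tet-induced TRPML1-DL cells loaded with Ca8 no-wash calcium dye were read kinetically on FDSS. Compound addition was followed by EC80 agonist 54-4 (4 uM final); inhibition was read over 110 s.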
PINK1 modulator = modulators of PINK1 expression. PINK1 immunofluorescence, high-content cytometry, 24 h. Potency, µM (top dose mostly 76.6 µM), for the others: at the highest dose activation (PINK1 increase), hits mostly activators. hit rate 0.2% among 410,000; active = well fitted activation curve with a large enough effect; inconclusive = small, poorly fitted or top-dose-only effect; inactive = flat fitted curve, though single readings scatter; cell line not stated here;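 also: potency is read from the fitted curve at half-maximal effect; % of control where 0% means no effect; nearly all actives have a fitted effect of over 65% in size; a mitochondrial uncoupler was the plate control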
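Stable cell line treated 24 h with compounds at 5 concentrations (CCCP controls), then fixed and immunostained for PINK1 plus nuclear and cell stains; PINK1 immunofluorescence quantified by laser-scanning microplate cytometry.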
Six1-Eya2 blk = Six1/Eya2 interaction inhibition | activity change, % (no concentration beside the values) | hit rate 0.56% among 360,000 | AID 651725 | Q15475+O00167 | AlphaScreen GST-Six1/His-Eya2 binding, biochemical; stronger effect = lower value; control for the full effect not named in the record; in the data active = activity change below about -65%; inconclusive = about -30% to -65%; inactive = above about -30%; also: % is scaled to controls: 0 for no effect and ±100 for the full control effect; compound concentration not given in the record
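GST-Six1 + His-Eya2 (5X stock: 250/500 nM); Tris pH 8.0, 300 mM NaCl, 0.05% BSA, 0.02% Tween 20; GSH donor/Ni acceptor beads; 1 h 37 °C dark; AlphaScreen readout.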
The depositor's hits bear a star; ? = inconclusive; . = no result given; & = joins results of further samples; [ ] = dose if it differs, or a comment.

SMILES	D2 ag	TRPML1 ag	CtBP-E1A blk	TRPML1 blocker	PINK1 modulator	Six1-Eya2 blk
O=C(NCCN1CCOCC1)c1ccc(Cl)c(S(=O)(=O)NCc2ccccc2)c1	-1.7	-0.2	.	-11	0.6%	7
CN(Cc1ccco1)C(=O)c1ccc(S(=O)(=O)N2CCCCCC2)cc1	14	0.0	5	22	-0.5%	-1
CCc1ccc(NC(=O)CSc2nccn2-c2ccc(OC)cc2)cc1	.	1.4	.	-13	7.4%	.
O=C(CC(C(=O)O)C1CCCO1)Nc1cccc(C(F)(F)F)c1 (configuration not stated)	-2.8	-1.0	11	-5	-1.5%	9
COc1ccc(CNC(=O)CN(c2ccc(C(C)C)cc2)S(=O)(=O)c2c(C)nn(C)c2C)cc1	.	-0.7	.	-6	2.6%	.
O=C(/C=C/c1ccc2c(c1)S(=O)(=O)N(Cc1ccccc1)[C@H]2CC(=O)N1CCOCC1)N1CCOCC1	-1.4	0.0	-10	-16	-0.3%	14
CCC1Sc2ccc(S(=O)(=O)Nc3ccc(OC)c(OC)c3)cc2NC1=O (configuration not stated)	5.9	1.4	-3	7	1.0%	1
CCCNC(=O)C(=O)c1cccn1-c1ccsc1C(=O)OC	-0.7	-0.1	2	14	-0.3%	3
Nc1ccc2oc(-c3cccs3)nc2c1	-2.9	-1.0	8	10	5.3%	-1
O=C(Cc1ccc(Cl)cc1Cl)OCC(=O)N1CCN(C(=O)c2ccco2)CC1	-3.7	-0.1	2	18	8.7%	2
COC(=O)c1ccccc1NC(=O)CC(NCc1ccccc1)C(=O)O (configuration not stated)	-0.6	-0.3	38	-1	3.1%[38.3 µM]	24
CCOC(=O)N1CCN(c2c(-c3ccccc3)c3cc(Cl)ccc3[nH]c2=O)CC1	-3.9	0.1	1	2	3.2%	5

Quoted from the listing:
TRPML1 ag with CCCNC(=O)C(=O)c1cccn1-c1ccsc1C(=O)OC reads -0.1
CtBP-E1A blk with O=C(CC(C(=O)O)C1CCCO1)Nc1cccc(C(F)(F)F)c1 (configuration not stated) reads 11
CtBP-E1A blk with CCC1Sc2ccc(S(=O)(=O)Nc3ccc(OC)c(OC)c3)cc2NC1=O (configuration not stated) reads -3
PINK1 modulator with CCc1ccc(NC(=O)CSc2nccn2-c2ccc(OC)cc2)cc1 reads 7.4%
TRPML1 ag with Nc1ccc2oc(-c3cccs3)nc2c1 reads -1.0

Going on with the list.
SMILES	D2 ag	TRPML1 ag	CtBP-E1A blk	TRPML1 blocker	PINK1 modulator	Six1-Eya2 blk
Oc1ccc(C[C@@H]2CNC(=S)N2CCCCC2CCCCC2)cc1	-1.5	-0.2	.	29	10%	-10
COC(=O)Cc1csc(Nc2ccccc2Cl)n1	-5.9	-1.0	-6	-13	-0.2%	5
CCN(C(=O)C1CCN(S(=O)(=O)c2ccc3c(c2)CCCN3C(C)=O)CC1)c1cccc(C)c1	.	-0.1	.	-7	1.1%	.
CC(C)(C)c1ccc(C(=O)NCC(c2ccco2)S(=O)(=O)c2ccccc2)cc1 (configuration not stated)	.	0.1	.	30	0.3%	.
Cc1ccc(CNC(=O)C(=O)NCC(c2ccco2)S(=O)(=O)c2cccs2)cc1 (configuration not stated)	.	2.2	.	-7	0.0%	.
COCCSc1nnc(NC(=O)CCS(=O)(=O)c2ccccc2)s1	1.3	0.1	1	-4	0.9%	11
S=c1[nH]c2ccccc2c2ccccc12	2.2	3.0	.	-18	-1.8%	-7
COc1cc(C2N(c3ccccn3)C(=O)C3CCCN32)cc(OC)c1OC (configuration not stated)	-0.8	0.8	-1	-17	0.1%	8
COc1ccccc1Oc1ncnc2c1oc1ccccc12	1.8	1.4	5	-25	-3.4%	-2
CCn1c2ccccc2c2nnc(N3CCN(c4cccc(Cl)c4)CC3)nc21	.	-0.6	.	20	0.9%	.
Cc1n[nH]c(=S)n1/N=C/c1ccc(Br)o1	0.4	-0.9	2	-3	0.6%	-2
COc1ccc(Cl)cc1NC(=O)CSc1nc(NS(=O)(=O)c2ccccc2)cc(=O)[nH]1	1.3	-0.5	-3	12	0.3%	-14

Fetched by compound from the entries so far, 2 records:
SMILES	D2 ag	TRPML1 ag	CtBP-E1A blk	TRPML1 blocker	PINK1 modulator	Six1-Eya2 blk
CCN(C(=O)C1CCN(S(=O)(=O)c2ccc3c(c2)CCCN3C(C)=O)CC1)c1cccc(C)c1	.	-0.1	.	-7	1.1%	.
CCn1c2ccccc2c2nnc(N3CCN(c4cccc(Cl)c4)CC3)nc21	.	-0.6	.	20	0.9%	.

(list continues)
SMILES	D2 ag	TRPML1 ag	CtBP-E1A blk	TRPML1 blocker	PINK1 modulator	Six1-Eya2 blk
COc1cc(C(c2sc3nc(C)nn3c2O)N2CC(C)OC(C)C2)cc(OC)c1OC (configuration not stated)	-2.5	-0.4	7	4	0.6%	-1
CN(C1CCCCC1)C(CNS(=O)(=O)c1ccccc1)c1ccccc1 (configuration not stated)	-4.4	-1.3	-6	15	0.5%	-8
COc1ccc(-c2nnc3ccc(SCC(N)=O)nn23)cc1OC	1.5	2.0	-7	-13	-0.7%[38.3 µM]	-9
COc1cccc(C(=O)Nc2ccccc2SCc2cc(=O)c3cccc(C)c3[nH]2)c1	.	1.0	.	-2	4.3%	.
Cc1cc(S(=O)(=O)c2ccc(Cl)cc2)nc(S(=O)(=O)c2ccc(Cl)cc2)c1C#N	-7.7	2.3	-5	-2	1.1%	-24
CCOC(=O)N1CCN(C(=O)c2ccc3nc(SCc4ccc(F)cc4)n(C)c3c2)CC1	5.1	-0.3	-3	-7	0.2%	0
COc1ccc(C2=NN(C(=O)/C=C/c3ccccc3)C(c3ccccc3)C2)c(OC(C)=O)c1 (configuration not stated)	-2.4	1.0	-8	39	6.3%	-13
Cc1cccc(NC(=O)Nc2cccc(Oc3c(F)c(F)c(F)c(F)c3F)c2)c1	-1.9	-0.5	5	-14	.	8
Cc1ccc(S(=O)(=O)c2cn(C)c3cc(N4CCCC4)c(F)cc3c2=O)c(C)c1	.	0.2	.	16	2.1%	.
CCc1ccc(NC(=O)Cn2c(=O)n(CCC(=O)NCc3ccc4c(c3)OCO4)c(=O)c3ccccc32)cc1	.	-0.5	.	-13	2.1%	.
O=C(NNC(=O)C1COc2ccccc2O1)c1ccccc1 (configuration not stated)	-1.2	-0.2	9	11	?	0
COc1ccc(-c2cc3ccccc3c(=O)o2)cc1	.	-0.3	7	.	-0.7%	59
O=[N+]([O-])c1ccccc1/C=C/C=N/n1c(-c2ccccc2)n[nH]c1=S	2.7	2.2	-9	-1	-2.7%	-18
O=c1nc(Oc2ccccc2)nc2ncccn12	-3.3	0.6	0	24	3.5%	-4
CCOC(=O)c1c(CSC(=N)N)n(-c2ccc(Br)cc2)c2cc(Br)c(OC(C)=O)cc12	-5.4&9.7	0.5	28	-11	-5.7%	-14
c1ccc(-c2nc(N3CCCCCC3)nc(-n3ccnc3)n2)cc1	-4.9	-0.5	4	-4	7.1%	0
COC(=O)c1ccc(COC(=O)CSCC(=O)Nc2ccc(C)cc2C)cc1	3.9	3.2	-13	8	-0.7%	10
O=C(Cn1c(=O)n(Cc2ccc3c(c2)OCO3)c(=O)c2oc3ccccc3c21)Nc1ccccc1F	.	2.0	.	-13	-1.0%	.
Cc1cccc(C)c1NC(=O)CN1CCN(c2ccc(C(F)(F)F)cn2)CC1	1.6	-0.4	0	-6	0.7%	1
Cc1cccc2cc(C#N)c(SCC(=O)N3CC(=O)Nc4ccccc43)nc12	-2.7	2.2	-7	13	3.7%	-9
Cc1ccc(S(=O)(=O)N2[C@@H](c3ccc(Cl)cc3)C(C(=O)OC(C)(C)C)=CC[C@H]2c2ccc(Cl)c(Cl)c2)cc1	-1.8	-0.4	2	53	1.9%	7
COc1cc(CNC(C)c2ccccc2)cc(Br)c1OCc1ccc(F)cc1 (configuration not stated)	-4.5	1.3	22	-3	-1.6%	20
COc1ccc(Cl)cc1-c1nc(SCC(=O)NC2CCCC2)n[nH]1	-2.2	1.8	-3	14	1.8%	-3
CCn1c(SCCN2CCCCC2)nnc1-c1ccc(S(=O)(=O)N2CCOCC2)cc1	-2.4	-0.1	7	-4	-0.5%	3
O=C(Nc1ccc(F)cc1F)c1cccnc1	-2.9	1.9	6	13	-2.3%	0
CCSc1nnc(Cc2cc(=O)[nH]c(=O)[nH]2)n1-c1ccc(F)cc1	-2.4	-0.6	-9	-11	0.0%	9
O=C(O)c1ccccc1-c1ccccc1C(=O)Nc1ccc2c(c1)CCC2	0.9	0.1	6	-8	0.0%	-1
Oc1ccccc1CNc1nccs1	-1.9	-1.2	7	-8	-2.2%	2
CCCOc1ccc(Cc2c(O)nc(SC)[nH]c2=O)cc1	-4.3	0.6	-12	-1	-1.4%	5
CCCCCCN1CCN(C2CN(CCCC)S(=O)(=O)C2)CC1 (configuration not stated)	-1.4	0.1	10	.	-0.9%	8
Cc1cccc(-n2c(=S)[nH]c3sc4c(c3c2=O)CCc2ccccc2-4)c1	-4.9	0.7	3	-16	0.5%	5
O=C(c1ccc(S(=O)(=O)N2CCCCCC2)cc1)N1CCN(Cc2ccccc2)CC1	-3.3	0.5	4	2	1.2%	-3
COc1cc(OC)cc(C(=O)Nc2ccc3nc(N4CCCCC4)cc(C)c3c2)c1	.	0.2	.	6	1.3%	.
Nc1nnc(SCC(=O)NC2CCCCCCC2)s1	-5.5	0.4	-4	-18	2.4%	1
Cn1cccc1Cc1nnc(SCC(=O)NCCc2ccccc2)n1-c1ccc(F)cc1	-4.4	-0.1	-7	2	1.5%	-7
O=C(OCCN1CCOCC1)c1cccnc1	-3.0&0.2	1.5&0.6	6&5	-11&9	?	8&2
COc1ccc(CNC(=O)c2cc(C(=O)C3CC3)c[nH]2)cc1	-11	1.3	2	6	2.6%	3
O=C1C(Cc2ccccc2)Nc2ncnc(N3CCCCC3)c2N1Cc1ccc(Cl)cc1 (configuration not stated)	-5.1	1.9	-1	0	3.9%	-4
COc1ccc(CNC(=O)CS(=O)(=O)Cc2nc(-c3cccc(OC)c3)oc2C)cc1	-1.5	-0.2	-3	39	0.1%	-3
O=C1CC(c2ccco2)CC2=C1C(c1ccccc1)n1nc(C(F)(F)F)nc1N2 (configuration not stated)	0.9	1.8&0.6	-5	-4&23	8.0%&1.3%	-3
Cn1c(COc2ccc3ccccc3c2)nnc1SCC(=O)O	-0.9	-0.2	0	-3	-0.3%	-1
C=CCc1cccc2cc(C(=O)N3CCOCC3)c(=O)oc12	-4.9	0.5	-7	-3	-0.9%	7
COc1ccc(N/N=C(C)/C(=N/O)C(=O)Nc2ccccc2)cc1	0.1	-0.6	-1	-1	-1.5%	13
Cc1ccc(-n2nnnc2-c2nc3ccccc3s2)cc1	-0.6	3.6	4	13	11%	2
CCOc1ccc(CCNC(=O)Cc2ccc(NC(=O)N3CCSc4ncccc43)cc2)cc1	.	0.4	.	41	-0.7%	.
O=C(Nc1nnc2n1CCS2)c1ccccc1	.	-0.1	.	8	1.1%	.
CCCc1nnc(NC(=O)CCC(=O)N2CCN(c3nc(C)cc(C)n3)CC2)s1	-0.3	1.3	-1	4	0.3%	1
O=C(NCCc1ccccc1)C1CCCN(c2cnccn2)C1 (configuration not stated)	-6.8	0.2	.	-9	0.5%	6

High-throughput results as filed in PubChem BioAssay.
